From PubChem BioAssay
26S disassembly – blocks ATP-dependent breakdown of the yeast 26S proteasome | AID 751 | inhibition of disassembly, % (test concentration not listed) | 0.2% of 24,000 active | anti-FLAG beads, GFP-proteasome disassembly, flow cytometry;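 active = above 40%; inconclusive = likely self-fluorescent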;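 also: plate controls were ATP control with full disassembly for no effect and ATP-gamma-S intact proteasomes for full effect; higher percent means more bead fluorescence retained so stronger block of disassembly; stock transfer was 100 nL into about 10 µL; wells with too few beads may also be inconclusive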
VCAM-1 rise – enhancers of VCAM-1 display on endothelial cells, cell-based, plate reader, pooled HUVEC, TNFa stimulus (AID 455). 0.2% of 10,000 active. HUVEC TNFa-induced VCAM-1 immunofluorescence, plate reader; numbers were filed only for top-ranked candidate wells. augmentation, % at 5 µM;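 active = a compound raising TNF-alpha-driven VCAM-1 surface staining, with its hit status upheld on visual or statistical review; inactive = the rest, including hits rejected on review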;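 also: 0% = TNFa with vehicle and 100% = strongest image-checked hit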
* = called active by the depositor; i = inactive; ? = inconclusive; / = no result given. Only part of the results is shown, so the mix of outcomes need not match the whole.

SMILES	26S disassembly	VCAM-1 rise
CN(CC(=O)NCCN1CCCCCC1)S(=O)(=O)c1cccc2nsnc12	-0.3	/
CCOC(=O)CC(=O)Nc1cc(Cl)ccc1O	5.0	/
COC(=O)c1cc(NC2c3ccccc3C(=O)N2CCN2CCOCC2)cc(C(=O)OC)c1 (stereo not given)	1.1	/
Cc1cccc(N2CCN(C(=O)c3cn(C)c(=O)c4c3c3ccccc3n4C)CC2)c1C	1.5	/
COc1cc(OC)cc(-n2nnnc2SCC(=O)N2CCCC2)c1	2.8	i
COc1ccc2nc(NC(=O)C(NS(=O)(=O)c3cccs3)C(C)C)sc2c1 (stereo not given)	0.1	i
Nn1c(CSc2nc3ccccc3o2)nnc1CSc1nc2ccccc2o1	0.6	i
N#CC1=C(N)Oc2n[nH]c(-c3ccc(F)cc3)c2C1c1cccnc1 (stereo not given)	0.5	/
O=C(NCCCN1CCN(C2CCCCC2)CC1)Nc1ccccc1C(F)(F)F	0.4	/
COc1ccccc1NC(=O)c1oc2ccccc2c1NC(=O)c1ccco1	-2.0	/
Cc1ccc(-c2nc(=S)c3c(n2Cc2ccco2)CCCC3)cc1	-1.0	i
CCOC(=O)CSC1=C(C#N)C(c2ccc(F)cc2)C(C(C)=O)=C(C)N1 (stereo not given)	0.8	/
COc1cc(C(=O)NCCC(=O)NCCN2CCCCCC2)cc(OC)c1OC	3.6	/
CCOC(=O)N1CCC(N2C(=O)c3ccccc3C2Nc2cc(OC)c(OC)c(OC)c2)CC1 (stereo not given)	0.6	/
COc1ccc(C2=Nn3c(nnc3-c3ccccc3)SC2)cc1OC	-0.7	i
Cc1ccc(C(C(=O)NC2CCCCC2)N2CCOCC2)cc1 (stereo not given)	-1.2	i
CCC1Oc2ccc(Cl)cc2N(CC(=O)O)C1=O (stereo not given)	-0.8	/
Cc1ccc(NC(=O)c2ccccc2F)nc1	-2.0	i
Cc1ccc(S(=O)(=O)N2CCN(S(C)(=O)=O)C2c2ccccc2)cc1 (stereo not given)	0.1	i
CCS(=O)(=O)NCc1ccc2[nH]c3c(c2c1)CCCC3	24	/
COc1ccccc1S(=O)Cc1ccc(C(=O)NCCc2ccc(Cl)cc2)o1 (stereo not given)	-2.1	/
Cc1cccc(-n2nc3c(c2NC(=O)c2ccc(Br)o2)CSC3)c1C	-0.9	/
O=C(CCCNS(=O)(=O)c1cccc2nsnc12)N1CCCCC1	0.9	/
CCOC(=O)N1CCN(C(=O)CSc2nnc(Cn3c(=O)sc4ccccc43)n2C)CC1	-1.8	/

In the list so far, 4 contain fluorine:
SMILES	26S disassembly	VCAM-1 rise
N#CC1=C(N)Oc2n[nH]c(-c3ccc(F)cc3)c2C1c1cccnc1 (stereo not given)	0.5	/
O=C(NCCCN1CCN(C2CCCCC2)CC1)Nc1ccccc1C(F)(F)F	0.4	/
CCOC(=O)CSC1=C(C#N)C(c2ccc(F)cc2)C(C(C)=O)=C(C)N1 (stereo not given)	0.8	/
Cc1ccc(NC(=O)c2ccccc2F)nc1	-2.0	i

Remaining list, next part:
SMILES	26S disassembly	VCAM-1 rise
Cc1cc(C)n(-c2nc3ccccc3n3nnnc23)n1	-1.1	/
CCN1CCCC1CN=Cc1c(O)n(-c2ccccc2)c(=O)c2ccccc12 (stereo not given)	9.0	i
O=C1c2ccccc2C(O)(Cc2ccccc2)N1c1ccc2c(c1)OCO2 (stereo not given)	-1.6	/
CCOc1ccccc1NC(=O)Cn1c(=O)n(CCC(=O)NC2CCCC2)c(=O)c2ccccc21	-1.0	/
COc1ccc(-c2nnn(Cc3nc(N)nc(N4CCCCC4)n3)n2)cc1	2.9	/
Cc1ccc(NC(=O)CN(c2ccc3c(c2)OCO3)S(=O)(=O)c2c(C)n[nH]c2C)cc1	-0.5	i
CCCCSC1=C(C#N)C(c2ccccc2C)C(C(=O)OCC)C(=O)N1 (stereo not given)	-0.6	/
Cc1nn(-c2ccc(F)cc2)c2nc(N)c(C#N)c(-c3cccs3)c12	8.1	i
O=C1CN(CC(=O)N2CCOCC2)c2ccccc2O1	5.0	/
O=C(CSc1nc2ccccc2o1)N1CCN(C(=O)c2ccco2)CC1	3.9	i
Cn1c(C(=O)NCC2CCCO2)cc2oc3ccccc3c21 (stereo not given)	-3.2	/
CCOC(=O)c1cnn(-c2cc(C)c3cc(C)cc(C)c3n2)c1N	-1.7	i
O=C(NCc1ccc(F)cc1Cl)C1CCN(S(=O)(=O)N2CCC3(CC2)OCCO3)CC1	-1.6	/
COc1ccc(-n2c(SCC(=O)c3c(N)n(C)c(=O)n(C)c3=O)nc3ccccc32)cc1	?	i
Cc1cc(C)c2c(n1)sc1c(N3CCOCC3)ncnc12	-1.0	i
CCN(c1c(C)n(C)n(-c2ccccc2)c1=O)S(C)(=O)=O	1.7	i
CCOC(=O)c1cccc(NC(=O)C2CCN(S(=O)(=O)c3cccs3)CC2)c1	-0.1	i
CSc1nc2c(c(=O)n1C)SC(C)C2 (stereo not given)	?	i
CC1CCN(CCCNC(=O)c2cn(C)c3ccc(S(=O)(=O)N4CCCC4)cc3c2=O)CC1	-0.1	i
O=C(Nc1ccc2c(c1)OCO2)c1cccc2c1C(=O)N(C1CCCCC1)C2	0.4	/
CCN(CC)S(=O)(=O)c1ccc(C(=O)NCc2n[nH]c(=S)n2-c2ccccc2OC)cc1	0.5	/
COc1ccc(C)cc1-n1nnnc1SC/C(O)=C(\C#N)c1nc2ccccc2[nH]1	5.0	i
CC(Sc1nnnn1-c1ccccc1)C(=O)Nc1ccc(Cl)cn1 (stereo not given)	-2.5	i
CCc1ccccc1NC(=O)CN(c1cccc(OC)c1)S(C)(=O)=O	0.2	i

Entries of single compounds as entered above. Screens in order: 26S disassembly | VCAM-1 rise
CC(Sc1nnnn1-c1ccccc1)C(=O)Nc1ccc(Cl)cn1 (stereo not given) as listed: -2.5 | i
CC1CCN(CCCNC(=O)c2cn(C)c3ccc(S(=O)(=O)N4CCCC4)cc3c2=O)CC1 as listed: -0.1 | i
Cc1cc(C)c2c(n1)sc1c(N3CCOCC3)ncnc12 as listed: -1.0 | i
O=C(NCc1ccc(F)cc1Cl)C1CCN(S(=O)(=O)N2CCC3(CC2)OCCO3)CC1 as listed: -1.6 | /
CCc1ccccc1NC(=O)CN(c1cccc(OC)c1)S(C)(=O)=O as listed: 0.2 | i

(listing goes on)
SMILES	26S disassembly	VCAM-1 rise
COc1ccc(C2C(C(=O)Nc3ccccc3OC)=C(C)Nc3ncnn32)cc1 (stereo not given)	1.6	/
O=c1[nH]n(-c2ccccc2)c(=O)c2ccccc12	-0.8	/
O=C(Nc1ccc(F)cc1)N(Cc1ccco1)Cc1cc2cc3c(cc2[nH]c1=O)OCO3	-1.1	i
CCc1ccc(C2CC(c3cccc(OC)c3)n3nc(N)nc3N2)cc1 (stereo not given)	-0.8	i
COc1ccc(N(CC(=O)N2CCC(C)CC2)S(=O)(=O)c2c(C)nn(C)c2C)cc1	0.1	/
O=C(NCC1CCCO1)C1CCCN(Cc2cnn(-c3ccccc3)c2-n2cccc2)C1 (stereo not given)	0.7	i
CC(=O)N1CCN(C(C)=O)C1c1ccccc1	-2.3	i
CNC(=O)CSc1nc2c(c(=O)n(C)c(=O)n2C)n1Cc1ccc(C)cc1	0.6	i
O=C(NCc1ccco1)C1CCN(C(=O)c2cc3sccc3n2Cc2ccc(Cl)cc2)CC1	-0.1	/
Cc1noc(C)c1S(=O)(=O)N1CCC(C(=O)N2CCN(C3CCCC3)CC2)CC1	-1.7	/
CCCn1c(=NC(C)=O)c(C#N)cc2c(=O)n3cccc(C)c3nc21	67*	i
COc1ccc(NC(=O)C2Cc3ccccc3C(=O)O2)cc1 (stereo not given)	7.8	i
c1ccc(N2CCN(c3nc4cc5c(cc4s3)OCO5)CC2)cc1	5.2	/
CCc1nc2nc(C)cc(Nc3cccc(C(F)(F)F)c3)n2n1	1.2	/
O=C(NCCc1ccccc1)C1c2ccccc2C(=O)N1C1CC1 (stereo not given)	1.4	/
Cn1c(=O)oc2cc(S(=O)(=O)N3CCC(C(=O)N4CCN(c5ccccc5)CC4)CC3)ccc21	-0.9	/
CCSc1ccccc1C(=O)Nc1cccc(OC)c1	-3.4	i
O=c1cc[nH]c2cc(C(F)(F)F)ccc12	-1.4	/
Cc1noc(C(=O)NCc2cccnc2)c1Cl	4.1	/
COc1ccc(C2C(C(=O)N3CCN(C)CC3)c3ccccc3C(=O)N2C2CCCCC2)cc1 (stereo not given)	0.6	/
O=C(C1CCN(S(=O)(=O)c2cccnc2)CC1)N1CCN(c2ccccc2Cl)CC1	-1.1	/
O=S(=O)(Cc1ccccc1)N1CCN(Cc2ccccc2)CC1	-3.0	i
CCCN(CCC)C(=O)CCS(=O)(=O)c1cccc2nsnc12	-0.5	/
Cc1ccc(S(=O)(=O)NCCCCCC(=O)N(C)C)cc1	-4.2	/

Random excerpt: 2 compounds from above
SMILES	26S disassembly	VCAM-1 rise
O=c1cc[nH]c2cc(C(F)(F)F)ccc12	-1.4	/
CCSc1ccccc1C(=O)Nc1cccc(OC)c1	-3.4	i

Remaining list, next part
SMILES	26S disassembly	VCAM-1 rise
Cc1ccc(NC(=O)CCNS(=O)(=O)c2ccc3c(c2)oc(=O)n3C)cc1	-1.8	/
Cc1nc(NCc2ccc3c(c2)OCO3)c2oc3ccccc3c2n1	4.5	i
CCOC(=O)N1CCC(NC(=O)c2cc(C(=O)Nc3cccc(OC)c3)ccc2CO)CC1	-0.7	/
O=C(O)c1cnn2c1NC(c1ccc(F)cc1)CC2C(F)(F)F (stereo not given)	-1.4	i
COc1ccc(C2=NOC(C(=O)NC(C)(C)C)C2)cc1 (stereo not given)	0.1	/
Cc1cc(NC(=O)CSc2ccc3nnc(-c4ccccc4)n3n2)no1	-0.3	/
O=C(O)c1ccc(CSCc2ccccc2F)o1	-1.9	/
CCC1CCCCN1C(=O)COc1cc(=O)n(C)c2ccccc12 (stereo not given)	-1.9	/
O=S(=O)(c1ccc(Br)s1)N1CCN(c2ccccc2)CC1	0.5	i
CCN1CCN(C(=O)CCCCCn2c(=O)[nH]c3cc(C(=O)OC)ccc3c2=O)CC1	-2.8	/
CCCCn1c(NCCO)nc2ccccc21	-1.1	/
COc1ccccc1-c1cc(C(=O)N2CCN(c3ccc(F)cc3)CC2)no1	-2.4	/
CCOC(=O)N1CCC(NC(=O)c2cc(S(=O)(=O)N3CCc4ccccc43)cn2C)CC1	2.1	/
COC(=O)Cn1ncc2c3ccccc3n(C)c2c1=O	3.1	/
O=C(NC1CCCCC1)C1CCCN(S(=O)(=O)c2cccs2)C1 (stereo not given)	0.2	/
Cc1ccc(-n2nc3c(c2NC(=O)c2ccc4c(c2)OCO4)CSC3)cc1	0.2	/
CCOC(=O)CSc1nnc(Cc2cc(=O)[nH]c(=O)[nH]2)n1-c1ccc(Cl)cc1	1.5	/
Cc1ccc(-n2nnc3c(SCC(=O)NCC4CCCO4)ncnc32)cc1 (stereo not given)	1.5	/
Cc1cnn(C(=S)NCc2ccco2)c1	3.3	i
O=C(C1CCC(Cn2c(=S)[nH]c3ccccc3c2=O)CC1)N1CCOCC1 (stereo not given)	-1.7	/
Cc1cc(C(=O)N2CCN(C(c3ccccc3)c3ccccc3)CC2)on1	-1.4	/
CS(=O)(=O)NCc1csc(-c2ccccc2)n1	0.7	/
CCOC(=O)CSc1nnc(CNC(=O)c2cccs2)n1-c1cc(OC)ccc1OC	-1.4	i
Cc1ccc(CN2CCN(CC(=O)NCc3ccc(Cl)cc3)C2=O)cc1	-0.6	/
Cn1cnnc1Sc1nc2c(c(=O)n(C)c(=O)n2C)n1Cc1ccccc1Cl	3.8	i
CCCCCn1c(SCC2CCCO2)nc2cc(C(=O)N3CCC(C(N)=O)CC3)ccc2c1=O (stereo not given)	-2.8	/
CCN(CC)CCn1c(=S)[nH]c2ccc(Cl)cc2c1=O	-0.3	/
CCCCn1nnnc1SCC(=O)Nc1cccc(C)n1	-0.4	i
CCCc1cc(C(=O)Nc2cccc(C(C)=O)c2)no1	-0.5	/
CCOC(=O)Cn1c(CCC(=O)O)ccc1-c1ccc(F)cc1	2.7	i
COc1ccc(N2C(=O)CCC(C(=O)N3CCCCCC3)C2c2ccc(OC)c(OC)c2)cc1 (stereo not given)	0.9	/
O=C(CCC1=NS(=O)(=O)c2ccccc2N1)NC1CCCCCCC1	0.9	/
CCOCC(=O)Nc1ccc(S(=O)(=O)N2CCOCC2)cc1	1.5	i
COc1cc(S(=O)(=O)N2CCOCC2)ccc1NC(=O)COC(=O)C12CC3CC(CC(C3)C1)C2	1.7	i
Cc1nc2sc(C(c3ccc(F)cc3)N3CCOCC3)c(O)n2n1 (stereo not given)	-1.1	/
CCCCOC(=O)c1ccc(OC(=O)c2cccnc2)cc1	-3.1	/
COc1cc2c(cc1OC)CN(C(=O)COc1ccc(C)c(C)c1)CC2	3.8	i
O=C(NCc1nnc(SCC(=O)N2CCCC2)o1)c1ccccc1F	-0.9	/
CCCc1cc(C(=O)NCc2ccc(OC)cc2)no1	-0.9	/
O=C(Nc1ccc(N2C(=O)C3C4C=CC(C4)C3C2=O)cc1)Nc1nncs1 (stereo not given)	0.1	i
O=C(NCCc1ccccc1)C1CCCN(S(=O)(=O)c2cccs2)C1 (stereo not given)	0.5	i
CCCCNC(=O)CN(C1CCCCC1)S(C)(=O)=O	0.2	i
Cc1cc(NC(=O)c2cc(C3CC3)on2)n(-c2ccccc2)n1	-0.8	/
COC(=O)c1cccc(NC(=O)C2COc3ccccc3O2)c1C (stereo not given)	-2.2	i
CC1=C(C(=O)Nc2ccccn2)C(c2cccnc2)n2nnnc2N1 (stereo not given)	0.3	/
Cc1cc(C)c2c(n1)nn1c(N3CCN(c4cccc(Cl)c4)CC3)cc(C)nc21	1.9	i
O=C(NCc1ccco1)c1cccc2c1C(=O)N(C1CCCCC1)C2	-0.2	/
COc1ccc(CN2C(=O)c3cccnc3C2Nc2cc(Cl)c(OC)cc2OC)cc1 (stereo not given)	0.0	/
